Lassa entry inh – inhibitors of Lassa virus binding or cell entry; Lassa virus pseudotype entry inhibition, cell reporter; control for the full effect not named in the record; Potency, µM (series often up to 37.9 µM), inactives show at the top dose activity change, negative = inhibition, most hits filed as inhibitors; hit rate 1.2% among 300,000; active means well fitted inhibition curve with a large enough effect; inconclusive means small, poorly fitted or top-dose-only effect, or effect the other way; inactive means flat fitted curve, though single readings scatter; tested in HEK293 cells; further: nearly all actives have a fitted effect of over 50% in size; luciferase read-out
StopGo reporter – FMDV 2A StopGo reporter, luciferase signal | human cells with a luciferase reporter of 2A StopGo recoding; control for the full effect not named in the record | Potency, µM (titrated, usually from 57.9 µM), for the others: at the highest dose signal change, negative = less light | hit rate 1.2% among 410,000 | AID 1159524; active = well fitted falling curve with a large enough effect; inconclusive = small, poorly fitted or top-dose-only effect; inactive = no such curve, though single readings can be large or run the other way; tested in HEK293T cells; further: nearly all actives have a fitted effect of over 45% in size; luciferase light after 4 h
Starred values were filed as active, the others as inactive; ? = inconclusive; [ ] = dose if it differs, or a comment. On the % scale 0 is the no-effect control and ±100 the full control effect; potency means the concentration at half of the fitted maximal effect.

SMILES	Lassa entry inh	StopGo reporter
CCOCCCNC(=O)NC(C)c1c(-n2cccc2)sc2c1CCN(CC)C2 (stereo not drawn)	12.7%[46.1 µM]	12.0%
Cc1cccc(NC(=O)C(c2ccccc2)N2Cc3ccccc3C2=O)c1C (stereo not drawn)	-0.6%[46.1 µM]	15.7%
CC1Cc2cc(S(=O)(=O)NCc3ccc(N(C)C)cc3)ccc2N1C(=O)C1CCC1 (stereo not drawn)	?	?
CC(=O)c1ccc(NC(=O)Cn2cc(S(=O)(=O)Cc3cccc(Cl)c3)c3ccccc32)cc1	17.6%[46.1 µM]	33.6%[activator]
CCCS(=O)(=O)N1CC(=O)N(c2cccc(F)c2)C(C)(C(=O)NC2CCCCCC2)C1 (stereo not drawn)	17.1%[46.1 µM]	4.1%
CCC(Sc1nc2ncccc2[nH]1)C(=O)Nc1cccc(OC)c1 (stereo not drawn)	22.3%[46.1 µM]	-14.1%
COc1cc(Cl)c(C)cc1NC(=O)CSCc1nc(-c2ccc(OC)c(OC)c2)no1	-14.5%[46.1 µM]	-6.9%
CSc1ncc(C(=O)NCc2cccc(C)c2)c(-c2ccccc2)n1	-13.7%[46.1 µM]	-6.3%
CCCS(=O)(=O)N1CC(=O)N(c2cc(C)ccc2C)C(C)(C(=O)NC2CCCCCC2)C1 (stereo not drawn)	19.1%[46.1 µM]	0.0%
CCN(C(=O)Cn1cc(S(=O)(=O)Cc2ccccc2Cl)c2ccccc21)c1ccccc1	-28.1%[46.1 µM]	-20.9%
CCCS(=O)(=O)N1CC(=O)N(c2cccc(Cl)c2C)C(C)(C(=O)NC2CCCC2)C1 (stereo not drawn)	-5.8%[46.1 µM]	5.7%
Cc1ccc(NS(=O)(=O)c2cc3[nH]c(=O)c(=O)[nH]c3cc2C)cc1Cl	10.7%[46.1 µM]	15.8%
CC1CCCN(c2ncnc3c2nc2n3CCCCC2)C1 (stereo not drawn)	20.1%[46.1 µM]	55.0%[activator]
Cc1ccc(S(=O)(=O)c2cn(C)c3cc(N4CCCC(C)C4)c(F)cc3c2=O)c(C)c1 (stereo not drawn)	-21.9%[46.1 µM]	-15.1%
CCOc1ccc(-c2cc(C(=O)N3CCN(S(=O)(=O)c4cc(Cl)ccc4OC)CC3)[nH]n2)cc1	?	0.0%
CCc1ccc(CNC(=O)CCCN2C(=O)c3cccnc3Oc3ccc(Cl)cc32)cc1	2.0%[46.1 µM]	-21.5%
CCCn1c2ccccc2c2cnn(CC(=O)NCC3CCN(Cc4ccc(F)cc4)CC3)c(=O)c21	3.3%[46.1 µM]	-16.9%
COc1ccc(-c2noc(N3CCN(c4cccc(C)c4C)CC3)n2)cc1OC	0.9%[46.1 µM]	?
CC(C)NC(=O)c1ccc(Cn2c(SCc3ccc(F)cc3)nc3cccnc32)cc1	4.7%[46.1 µM]	8.1%
CCc1ccccc1NC(=O)Cn1c(=O)n(-c2ccc(C)cc2)c(=O)c2c1c1cc(C)ccc1n2C	1.5%[46.1 µM]	-9.5%

An excerpt of the results above, for reference:
SMILES	Lassa entry inh	StopGo reporter
CCCn1c2ccccc2c2cnn(CC(=O)NCC3CCN(Cc4ccc(F)cc4)CC3)c(=O)c21	3.3%[46.1 µM]	-16.9%
COc1ccc(-c2noc(N3CCN(c4cccc(C)c4C)CC3)n2)cc1OC	0.9%[46.1 µM]	?
CC(C)NC(=O)c1ccc(Cn2c(SCc3ccc(F)cc3)nc3cccnc32)cc1	4.7%[46.1 µM]	8.1%
CCc1ccccc1NC(=O)Cn1c(=O)n(-c2ccc(C)cc2)c(=O)c2c1c1cc(C)ccc1n2C	1.5%[46.1 µM]	-9.5%

Next part
SMILES	Lassa entry inh	StopGo reporter
COc1cccc(CNS(=O)(=O)c2cc3[nH]c(=O)c(=O)[nH]c3cc2C)c1	29.1%[46.1 µM]	-1.6%
CCN(CC)CCN(C(=O)c1ccco1)c1nc2cc(C)cc(C)c2s1	?	-7.5%
CCN(Cc1ccccc1)C(=O)c1nc(-c2cccc(F)c2)n2c1CCCCC2	8.5%[46.1 µM]	-12.9%
O=C(NCc1ccco1)c1ccc(Cn2c(SCc3ccc(F)cc3)nc3cccnc32)cc1	1.4%[46.1 µM]	6.2%
CSc1ncc(C(=O)Nc2ccc(F)cc2F)c(-c2ccccc2)n1	4.4%[46.1 µM]	2.5%
CN(C(=O)C1CCCN(c2ncnc3c2nc2n3CCCCC2)C1)c1ccccc1F (stereo not drawn)	?	?
Cn1cc(S(=O)(=O)c2ccccc2)c(=O)c2cc(F)c(N3CCCCCC3)cc21	-7.7%[46.1 µM]	-24.1%
CN(C)CCN(C(=O)c1ccco1)c1nc2c(F)cc(F)cc2s1	17.5%[46.1 µM]	10.1%
COc1ccc(C)cc1NC(=O)N(Cc1ccc2c(c1)OCO2)C1CCN(Cc2ccccc2)CC1	-26.7%[46.1 µM]	0.0%
CCS(=O)(=O)N1CC(=O)N(c2ccc(Cl)cc2)C(C)(C(=O)NC2CCCCCC2)C1 (stereo not drawn)	3.3%[46.1 µM]	0.0%
O=C(Nc1ccc(Cl)cc1)N1CCC(CN2CCCC2)CC1	?	-5.9%
CCN1CCC(N(Cc2ccc(F)cc2)C(=O)Nc2cc(Cl)ccc2C(=O)OC)CC1	?	?
COc1ccc(-c2noc(N3CCN(c4cccc(Cl)c4)CC3)n2)cc1OC	-12.8%[46.1 µM]	-9.5%
O=C(Cn1cc(S(=O)(=O)Cc2ccccc2F)c2ccccc21)Nc1ccc(F)c(Cl)c1	1.8%[46.1 µM]	?
Cc1ccc(C)c(N2CCN(c3ncnc4c3nc3n4CCCCC3)CC2)c1	-3.9%[46.1 µM]	-7.2%
O=C(NCCc1ccc(Cl)cc1)C1CCN(c2ncnc3c2nc2n3CCCCC2)CC1	6.4%[46.1 µM]	8.2%
CCn1cc(S(=O)(=O)c2cccc(C)c2)c(=O)c2cc(F)c(N3CCCC(C)C3)cc21 (stereo not drawn)	5.8%[46.1 µM]	8.0%
CCOc1ccc(NC(=O)C(CC(C)C)N2Cc3ccccc3C2=O)cc1 (stereo not drawn)	-4.8%[46.1 µM]	-14.1%
COc1ccc(-c2cn3nc(N4CCC(C(=O)NCc5ccc(F)cc5)CC4)sc3n2)cc1	?	12.9%
O=C(Cn1cc(S(=O)(=O)Cc2ccc(F)cc2)c2ccccc21)NCCc1ccccc1	21.9%[46.1 µM]	-3.5%
COc1ccccc1CNC(=O)CN1C(=O)CCCc2ccccc21	6.3%[46.1 µM]	6.9%
CN(C)c1ccc(CNC(=O)CN2C(=O)c3cccnc3Oc3ccc(Cl)cc32)cc1	-24.0%[46.1 µM]	0.3%
CN(C)c1ccc(CNC(=O)Cn2c(-c3cccs3)cc3cc(Cl)ccc32)cc1	8.5%[46.1 µM]	-6.6%
O=C(Nc1ccc(Br)cc1F)N1CCC(CN2CCCC2)CC1	-3.3%[46.1 µM]	-1.1%
O=C(NCCc1ccccc1)c1ccc(CSc2nc3cccnc3n2Cc2ccc(F)cc2)cc1	?	-23.3%
CCCn1c2ccccc2c2cnn(CC(=O)N3CCC(C)CC3)c(=O)c21	1.0%[46.1 µM]	-12.7%
CCN(CC)CCNC(=O)CN1C(=O)c2cccnc2Oc2ccc(C)cc21	1.1%[46.1 µM]	-6.0%
CCCn1c2ccccc2c2cnn(CC(=O)Nc3ccc(C)cc3Br)c(=O)c21	-21.2%[46.1 µM]	0.2%
CCOC(=O)C1=C(CN2CCC(C)CC2)NC(=O)NC1c1ccc(F)cc1 (stereo not drawn)	-9.5%[46.1 µM]	-27.0%
COc1ccc(CNC(=O)C2=C(C)C(=O)OC23CCN(C(C)=O)CC3)cc1	0.5%[46.1 µM]	8.6%
CC(=O)N1c2ccc(S(=O)(=O)Nc3ccc(C)c(Cl)c3)cc2CC1C (stereo not drawn)	-9.3%[46.1 µM]	2.4%
CCS(=O)(=O)N1CC(=O)N(c2ccc(C)c(C)c2)C(C)(C(=O)NC2CCCCC2)C1 (stereo not drawn)	10.9%[46.1 µM]	-4.0%
O=C(Nc1ccc(Br)cc1F)N1CCC(CN2CCc3ccccc3C2)CC1	8.3%[46.1 µM]	11.4%
CC(C)N(Cc1ccccc1)C(=O)Cn1ncc2c([nH]c3ccccc32)c1=O	-2.9%[46.1 µM]	?
O=C(NCc1cccs1)c1ccc(CSc2nc3cccnc3n2Cc2ccccc2)cc1	?	-21.5%
O=C(NCc1cccc(F)c1)c1ccc(CN2CC(=O)N3CCCCC3C2=O)cc1 (stereo not drawn)	14.0%[46.1 µM]	-13.0%
CCCCn1cc(S(=O)(=O)c2ccc(Cl)cc2)c(=O)c2cc(F)c(N3CCCCC3)cc21	-0.3%[46.1 µM]	-17.8%
CCOc1cccc2sc(N(CCN(CC)CC)C(=O)c3ccco3)nc12	8.2%[46.1 µM]	-12.5%
COCCCNC(=O)c1ccc(CSc2nc3cccnc3n2Cc2ccc(OC)cc2)cc1	-14.6%[46.1 µM]	-8.8%
COC(=O)c1ccccc1NC(=O)c1nc(-c2ccc(Cl)cc2)n2c1CCCCC2	8.2%[46.1 µM]	0.0%
COc1ccc(C)cc1NC(=O)N1CCC(CN2CCC(C)CC2)CC1	4.3%[46.1 µM]	-12.4%
Cc1ccc(NC(=O)C(Cc2ccccc2)N2Cc3ccccc3C2=O)cc1Cl (stereo not drawn)	-14.9%[46.1 µM]	-3.1%
O=C(CN1C(=O)c2cccnc2Oc2ccc(Cl)cc21)Nc1cccc(C(F)(F)F)c1	?	-1.1%
CC(NC(=O)CN1C(=O)c2cccnc2Oc2ccc(Cl)cc21)c1ccccc1 (stereo not drawn)	3.2%[46.1 µM]	1.8%
CN(CC(=O)NCc1ccc(F)cc1)S(=O)(=O)c1ccc2[nH]c3c(c2c1)CCCC3	?	-28.1%
CCN(CC)c1ccc(NS(=O)(=O)c2cc3[nH]c(=O)c(=O)[nH]c3cc2C)c(C)c1	-1.3%[46.1 µM]	-20.9%
COc1ccc(CNC(=O)CN(C)S(=O)(=O)c2ccc3[nH]c4c(c3c2)CCCC4)cc1	?	-8.2%
Cc1cc(C)cc(NC(=O)C(C)N2Cc3ccccc3C2=O)c1 (stereo not drawn)	5.2%[46.1 µM]	-23.0%
O=C(NC1CCCCC1)c1ccc(CSc2nc3cccnc3n2Cc2ccccc2F)cc1	-28.0%[46.1 µM]	?
Cc1ccc(NS(=O)(=O)c2ccc3[nH]c4c(c3c2)CCCC4)cc1N(C)C	-0.3%[46.1 µM]	58.2%[activator]

The last 2 records of the part above come first, to join the parts:
SMILES	Lassa entry inh	StopGo reporter
O=C(NC1CCCCC1)c1ccc(CSc2nc3cccnc3n2Cc2ccccc2F)cc1	-28.0%[46.1 µM]	?
Cc1ccc(NS(=O)(=O)c2ccc3[nH]c4c(c3c2)CCCC4)cc1N(C)C	-0.3%[46.1 µM]	58.2%[activator]
CC(=O)c1ccc(NC(=O)c2nc(-c3ccc(Cl)cc3)n3c2CCCCC3)cc1	-17.9%[46.1 µM]	-20.6%
Cc1c(Cl)cccc1NC(=O)N1CCC(CN2CCCC2)CC1	20.3%[46.1 µM]	-11.0%
CSc1ncc(C(=O)Nc2ccc(C)c(Cl)c2)c(-c2ccccc2)n1	9.4%[46.1 µM]	-24.6%
Cc1ccc(Cn2cc(S(=O)(=O)c3ccccc3)c(=O)c3cc(F)c(N4CCOCC4)cc32)cc1	-14.3%[46.1 µM]	10.2%
CCC(Sc1nc2ncccc2[nH]1)C(=O)Nc1ccccc1F (stereo not drawn)	15.7%[46.1 µM]	-11.0%
Cc1ccc(N2CCN(C(=O)c3cc(S(=O)(=O)N4CCCCC4)c[nH]3)CC2)c(C)c1	-8.5%[46.1 µM]	-15.9%
Cc1ccc(N(C)C(=O)Cn2ncc3c([nH]c4ccccc43)c2=O)cc1C	-5.2%[46.1 µM]	-37.6%
CC(=O)c1ccc(NC(=O)c2cn3c4c(ccc(Cl)c4c2=O)OC(C)C3)cc1 (stereo not drawn)	18.3%[46.1 µM]	-18.3%
CCc1ccc(S(=O)(=O)c2cn(C)c3cc(N4CCN(CC)CC4)c(F)cc3c2=O)cc1	1.3%[46.1 µM]	-0.8%
Cc1ccc(NC(=O)c2cn3c4c(ccc(Cl)c4c2=O)OC(C)C3)c(C)c1 (stereo not drawn)	28.0%[46.1 µM]	0.5%
Cc1cccc(C)c1NC(=O)Cn1cc(S(=O)(=O)Cc2ccc(F)cc2)c2ccccc21	-5.3%[46.1 µM]	-10.2%
CCOc1ccc(C2CC(=O)NC(NC(=O)c3ccc(C)cc3)=N2)cc1 (stereo not drawn)	11.0%[46.1 µM]	63.2%[activator]
CCCCn1cc(S(=O)(=O)c2ccc(C)c(C)c2)c(=O)c2cc(F)c(N(CC)CC)cc21	?	-2.3%
CCOc1ccccc1NS(=O)(=O)c1ccc2c(c1)CC(C)N2C(=O)C1CCC1 (stereo not drawn)	-22.5%[46.1 µM]	?
CCCS(=O)(=O)N1CC(=O)N(c2ccc(Cl)cc2C)C(C)(C(=O)NC2CCCC2)C1 (stereo not drawn)	21.7%[46.1 µM]	0.0%
Clc1ccccc1CNc1ncnc2c1nc1n2CCCC1	?	-3.8%
O=C(COCc1cc(-c2cccs2)on1)Nc1cc(Cl)ccc1O	0.5%[46.1 µM]	-19.0%
CSc1ncc(C(=O)N2CCN(c3cccc(C(F)(F)F)c3)CC2)c(C)n1	4.6%[46.1 µM]	-18.5%
COc1ccccc1NC(=O)N(Cc1ccc2c(c1)OCO2)C1CCN(Cc2ccccc2)CC1	?	-4.0%
CC(=O)N1CCC2(CC1)OC(=O)C(C)=C2C(=O)NCc1ccc(Cl)cc1	-0.7%[46.1 µM]	-6.3%
COC(=O)c1cc(NC(=O)Cn2ncc3c([nH]c4ccccc43)c2=O)cc(C(=O)OC)c1	15.6%[46.1 µM]	11.7%
Cc1ccc(CNC(=O)COCc2cc(-c3cccs3)on2)cc1	?	-8.5%
COc1ccc(C(=O)Nc2ccc(-c3nnc4n3CCCCC4)cc2)cc1OC	8.9%[46.1 µM]	-12.3%

Compound activity from PubChem BioAssay.

These rows are one share of the data; rates above refer to the full screens.
